From PubChem
NPYLR7 agonist: mosquito NPYLR7 agonism. activation, % at 10 µM. HEK293T NPYLR7/Galpha15, GCaMP6s calcium fluorescence. 0.15% of 270,000 active; in the data active = activation above about 40%;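 also: 0% = vehicle and 100% = reference agonist at the receptor; some compounds past the cut are filed as inactive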
NPYLR7 agonist max-min: recorded beside NPYLR7 agonist, whose call it bears; activation, %; measured here: Max-Min RFU normalised activation; some inactives read as strong as hits;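 span of the calcium signal over five minutes; 0% = vehicle and 100% = native peptide agonist; compound fluorescence can raise it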
* marks the source's active call; other numbers are inactive results; & = joins results of further samples.

Screens in order – NPYLR7 agonist, NPYLR7 agonist max-min
> COc1ccc(NS(=O)(=O)c2ccc(I)cc2)cc1N1CCN(C)CC1
 : -11, -16
> CCOC(=O)c1cc(-c2ccc(N3CCN(C(=O)c4ccco4)CC3)cc2)n(-c2ccccc2OC)n1
 : 21, 16
> Cn1nc(-c2nnc(-c3cccc(Cl)c3)o2)c2ccccc2c1=O
 : 1, -4
> CCc1nc(C)ccc1OCC(=O)N1CCC2(CCCO2)CC1
 : 6, 3
> Cc1nn(Cc2ccc(F)cc2)c2n[nH]c(N)c12
 : -4, -4
> C=CCn1c(O)c(N=NC(=O)c2ccc(N)cc2)c2ccccc21
 : -1, -4
> COc1ccc(-c2cc(C(=O)N(C)CCc3ccc(OC)c(OC)c3)c(C)n2-c2ccccc2)cc1
 : 18, 26
> CC1CCCN(S(=O)(=O)c2ccc3c(c2)nc(SCc2ccccc2Cl)n3C2CCCC2)C1 (stereo not drawn)
 : 19, 13
> O=C1CCCN1C1CCCN(CCn2cncn2)C1 (stereo not drawn)
 : -1, -3
> CCCc1ccc(CN2CC[C@H](CO)[C@@H](O)C2)o1
 : 8, 3
> Cc1cccc(N2CCN(CC(O)c3ccccc3Cl)CC2)c1 (stereo not drawn)
 : 2&1, 3&3
> Oc1ccc(Br)cc1-c1nnco1
 : 4, 9
> CCN1C(=Cc2cc(C)[n+](CCO)c(C)c2)Sc2ccccc21
 : 46, 37
> CCC1SC(N2CCCCCC2)=NN=C1c1ccccc1 (stereo not drawn)
 : 0, -3
> C/C(Cn1nnc([N+](=O)[O-])n1)=N/NC(=O)c1ccc(Cl)c(Cl)c1
 : -6, -9
> CCc1ccc(N2CC(C(=O)NC(C)(C)C)CC2=O)cc1 (stereo not drawn)
 : -2, -6
> C=CC(C)(O)CN(CCC(C)C)Cc1cccc(C)c1 (stereo not drawn)
 : 0, 5
> C=CCn1c2nc3ccccc3nc2c2c(=O)n(Cc3ccco3)cnc21
 : -3, -4
> CC(=O)c1cc(F)ccc1OCC(=O)Nc1ccc(OC(F)F)cc1
 : 1, -2
> CCOC(=O)N1CCN(C(=O)CSc2ncnc3c2nnn3C)CC1
 : 1, 18

Another view of 3 compounds above:
structure: C=CCn1c2nc3ccccc3nc2c2c(=O)n(Cc3ccco3)cnc21
  NPYLR7 agonist: -3
  NPYLR7 agonist max-min: -4

structure: CC(=O)c1cc(F)ccc1OCC(=O)Nc1ccc(OC(F)F)cc1
  NPYLR7 agonist: 1
  NPYLR7 agonist max-min: -2

structure: CCOC(=O)N1CCN(C(=O)CSc2ncnc3c2nnn3C)CC1
  NPYLR7 agonist: 1
  NPYLR7 agonist max-min: 18

Other entries follow:
Screens in order – NPYLR7 agonist, NPYLR7 agonist max-min
> CC1(C)CC(=O)C=C(NCC2CCN(C(=S)Nc3ccccc3)CC2)C1
 : -5, -7
> C=CCOCC(O)CN(Cc1ccco1)Cc1c(-c2ccccc2)noc1N1CCOCC1 (stereo not drawn)
 : -7, 1
> C=CCOC(=O)C1=C(C)OC(=N)C(C#N)C1c1c(C)nn(-c2ccccc2)c1Cl (stereo not drawn)
 : -4, -8
> CCOC(=O)NC(=O)c1cn(CCN(C)C)c(=O)[nH]c1=O
 : 3, 0
> COc1ccc(-c2cc3c(SCC(=O)Nc4c(C)cccc4C)nccn3n2)cc1
 : -2, -5
> Cn1cccc1C(=O)NC(=O)CN1CCCCCC1
 : 10, 6
> O=C(NCc1cccs1)c1cn(Cc2ccc3c(c2)OCO3)c(=O)s1
 : 10, 4
> Cc1ccc(C(=O)NCC(C)(C)N2CCN(C)CC2)cc1C
 : -27, -23
> CCCCc1nc(Cl)c(CO)n1Cc1ccc(-c2ccccc2-c2nn[nH]n2)cc1
 : -9&-10, -17&-19
> CC(C)(C)P(=Nc1cccc([N+](=O)[O-])c1)(c1ccccc1)N1CCCCC1 (stereo not drawn)
 : -3, -9
> O=C(CCNC1CCCN(c2cccnn2)C1)N1CCOCC1 (stereo not drawn)
 : -1, -2
> CC(C)c1noc(-c2ccc(N3CCCC3c3ccccn3)nc2)n1 (stereo not drawn)
 : 0, 0
> CCN1CCC(C(=O)NC(C)c2cccc3ccccc23)CC1 (stereo not drawn)
 : 15, 0
> O=C(NCc1ccc(F)cc1)c1cc(NC(=O)C(Cl)Cl)ccc1N1CCCC1
 : 6, 10
> CCN(CC)C(=O)Oc1ccc2c(ccn2Cc2ccccc2C#N)c1-c1ccc(OC)cc1
 : 17, 10
> Cc1noc2nc(-c3ccc(F)cc3)cc(C(=O)Nc3cc(F)cc(F)c3)c12
 : 1, 11
> O=C(c1ccc(N2C(=O)CCC2=O)cc1)N(Cc1ccccn1)c1nc2ccccc2s1
 : -1, -6
> CCCS(=O)(=O)N1CCN=C1SCc1ccccc1C
 : 44*, 49*
> CC(=O)Nc1ccc(CN(C)c2c(C)nc3ccc(C(=O)N4CCN(C(C)=O)CC4)cn23)cc1
 : 12, -1
> CSc1ncc(CN2CCC(CO)(Cc3ccccc3Cl)CC2)cn1
 : 18, 4

Brought forward from above: 2 entries, followed by the next part.
Screens in order – NPYLR7 agonist, NPYLR7 agonist max-min
> CC(=O)Nc1ccc(CN(C)c2c(C)nc3ccc(C(=O)N4CCN(C(C)=O)CC4)cn23)cc1
 : 12, -1
> CSc1ncc(CN2CCC(CO)(Cc3ccccc3Cl)CC2)cn1
 : 18, 4
> COc1ccccc1-n1c(=O)c2ccccc2n(Cc2ccc(C(=O)NCc3ccccn3)cc2)c1=O
 : 4, 19
> Cc1cnc(C(=O)O)c[n+]1[O-]
 : 10, 11
> CCOC(=O)N1CCN(C(=O)c2ccc3c(c2)C(=O)c2ccccc2-3)CC1
 : 12, 3
> O[C@@H]1CN(Cc2ccccc2Cn2cccn2)CC[C@H]1c1ccc(F)cc1
 : 0, -2
> Cc1ccc(C)c(OCc2cc(C(=O)N3CCN(c4cnccn4)CC3)no2)c1
 : 4, 1
> C#C[C@]1(OC(C)=O)CC[C@H]2[C@@H]3CCC4=CC(=O)CC[C@@H]4[C@H]3CC[C@@]21C
 : -9, -12
> CC(C)C(=O)Nc1nn(Cc2ccc(Oc3ccccc3)cc2)c2ccccc12
 : 9, 15
> Cc1cccc2sc(NC(=O)C3(c4ccccc4)CC3)nc12
 : 8, 9
> CCC(=O)N(CCN1CCOCC1)Cc1csc(COc2ccccc2C)n1
 : -3, 3
> CC1=NN(c2cccc(C(=O)O)c2)C(=O)/C1=C\c1ccc(-c2cc([N+](=O)[O-])ccc2O)o1
 : -17, -19
> Cn1cc(S(=O)(=O)NC(=O)c2cnc(-c3ccccc3)nc2)cn1
 : 8, 6
> COc1cccc(-c2cc(C(=O)Nc3ccc(F)cc3)n3nc(C(C)(C)C)cc3n2)c1
 : 16&-9, 21&-7
> Cc1cc(CC(C)NC(=O)c2cnc(N(C)C)nc2C)n[nH]1 (stereo not drawn)
 : -6, -7
> CCN(CC)S(=O)(=O)c1ccc(F)c(C(=O)NC2(C(=O)O)CCCCC2)c1
 : 2, 1
> Clc1ccc(-c2[nH]ncc2Br)cc1
 : -3, -9
> O=S(=O)(c1ccc(F)cc1Cl)N1CCN(c2nccc(-c3cccc(C(F)(F)F)c3)n2)CC1
 : 13, 9
> Cc1nc2ccc(C(=O)N3CCc4c(cnc(C)c4CNC(=O)Cc4ccsc4)C3)cc2nc1C
 : 1, -6
> CCC(C)C(N)C(=O)Nc1nnc(-c2ccc(Br)cc2)s1 (stereo not drawn)
 : 16, 16
> OC(c1cccnc1)c1nc(/C=C/c2ccc(C(F)(F)F)cc2)cs1 (stereo not drawn)
 : 5, 0
> CC1=CC(C)(C)N(S(=O)(=O)c2ccc(F)cc2)c2ccc(C)cc21
 : 20, 11

An excerpt of these results, with each value named:
> O[C@@H]1CN(Cc2ccccc2Cn2cccn2)CC[C@H]1c1ccc(F)cc1
  NPYLR7 agonist: 0	NPYLR7 agonist max-min: -2
> Cc1ccc(C)c(OCc2cc(C(=O)N3CCN(c4cnccn4)CC3)no2)c1
  NPYLR7 agonist: 4	NPYLR7 agonist max-min: 1

(next part)
mol	NPYLR7 agonist	NPYLR7 agonist max-min
O=C(CCn1cncn1)NCc1ccc(Cl)cc1Cl	0	-2
CCCCc1ccc(N=Cc2c(C)c(C#N)c(=O)n(CCCC)c2O)cc1	16	9
N#CC1=C(N2CCOCC2)N=P(c2ccccc2)(c2ccccc2)N=C1c1ccccc1	0	2
NS(=O)(=O)c1ccc2[nH]c(=O)c3n[nH]c(=O)n3c2c1	11	6
CCCCCCNC(=O)c1cc(-c2ccccc2F)nn1-c1ccc(OC)cc1	-6	4
COc1ccc(S(=O)(=O)N2CCN(c3nc(C)nc(C)c3Cc3cccc(C)c3)CC2)cc1	4	6
Cc1ccc2nc(C3CCCN3Cc3nnc(C)s3)[nH]c2c1 (stereo not drawn)	4	3
O=C(c1cc(F)ccc1F)N1CCC(c2nc(-c3c(Cl)cccc3Cl)no2)CC1	5	4
NC(=O)CCn1ccc(NC(=O)/C=C/c2cccc(F)c2)n1	8	4
O=C(NCC1COc2ccccc2O1)N1CCCCCC1c1ccncc1 (stereo not drawn)	-2	-3
COC(=O)Cn1c(=NC(=O)CSCC(=O)Nc2nccs2)sc2cc(OC)ccc21	21	15
COc1ccccc1OC1CN(C(=O)CCc2c(C)nn(C)c2C)C1	0	-4
Cc1nc(C(=O)N2CCCC(c3nc(C(C)C)no3)C2)cs1 (stereo not drawn)	7	6
O=C(c1[nH]cnc1-c1ccccc1)N1C[C@H]2CC=CC[C@H]2C1	27	11
COc1ccc(Cl)cc1NS(=O)(=O)c1ccc(C)cc1C	-3	-8
CC1CCN(c2ccc(N)cc2C(=O)NC(C)c2ccccc2)CC1 (stereo not drawn)	31&6	30&7
C#CCOc1ccc(C(=O)N2CCOCC2C#N)cc1 (stereo not drawn)	-9	-14
CC(NC(=O)c1cc(S(=O)(=O)N2CCCC2)cn1C)c1ccc(Cl)cc1Cl (stereo not drawn)	9	7
Cc1ccc(Nc2nnc(SCC(=O)NC(=O)Nc3ccc4c(c3)OCCO4)s2)cc1C	5	0
COC(=O)[C@@H](N)Cc1ccc(O)c(O)c1	0	-24
Cc1ccc(CN2CC(C(=O)NC3CCOc4ccccc43)CC2=O)cc1 (stereo not drawn)	-4	-4
CS(=O)(=O)c1ccc2nc(NC(=O)c3ccc4nc[nH]c4c3)sc2c1	0	2
NS(=O)(=O)c1ccc(NC(=S)N2CCN(CCO)CC2)cc1	2	9
CCCNc1nc2ccccn2c(=O)c1C=C1SC(=S)N(Cc2ccccc2)C1=O	-1	-1
Ic1ccc(-c2nc(-c3ccncc3)no2)cc1	1	-2
O=C(Nc1cccc(-c2cscn2)c1)C1CCN(Cc2cccnc2)CC1	0	-3
O[C@@H]1CN(c2nccc3ccccc23)CC[C@H]1c1ccc2c(c1)OCO2	1	-1
CCS(=O)(=O)N1CC(=O)N(Cc2ccc3c(c2)OCO3)CC(O)C1 (stereo not drawn)	20	25
O=C(C1CCCCC1)N1CCN=C1SCc1cccnc1	0	-2
O=c1oc2ccc3ccccc3c2cc1-c1nnc(Nc2ccc(Br)cc2)s1	1	-2

mol	NPYLR7 agonist	NPYLR7 agonist max-min
COc1ccc(C(=O)N2CCC(C(=O)Nc3cccc(-c4cccc(Cl)c4)c3)CC2)o1	2&6	3&0
CCOCCCN(CC(=O)N(Cc1ccc(F)cc1)Cc1ccc(C)s1)C(=O)c1ccc(Cl)cc1	13	9
Cc1cc(C(=O)N2CCN(c3ncccc3C(=O)NCc3ccc4c(c3)OCO4)CC2)c(C)o1	16	7
COC(=O)C1=C(C)N=c2sc(=Cc3ccc(C)o3)c(=O)n2C1c1ccccc1 (stereo not drawn)	6	6
CCOC(=O)C1=C(C)N(C)C(=S)NC1c1ccc(NC(=O)c2ccc([N+](=O)[O-])cc2)cc1 (stereo not drawn)	19	16
Cn1c(C(=O)O)cc(Br)c1C=O	1	-1
CN(C)c1ccc(C=Cc2ccc3ccccc3[n+]2C)cc1	13	8
N#CCc1c(C#N)c(N)nc(N(CCO)CCO)c1C#N	4	5
CCc1nc2ccc(C(=O)N(CC)CCN(C)C)cn2c1N(C)C(=O)c1cccc(OC)c1	24	21
Cc1nn(-c2ccc(F)cc2)c2nc(Cc3ccccc3)nc(N3CCN(C(=O)CCCl)CC3)c12	16	14
Cc1ccc(N=c2oc3ccc(Br)cc3cc2C(N)=O)cc1	-2	-8
Cc1ccc2[nH]c(=O)c(-c3noc(C(C)(C)C)n3)cc2c1	6	-1
O=C(Cn1[nH]c(=O)c2ccccc2c1=O)N(Cc1ccsc1)C1CC1	1	10
CC(C)NC(=O)COC(=O)c1ccccc1CSC1=NCCS1	6	3
CCC(C)NC(=O)c1nn(-c2ccc(C)c(Cl)c2)c(=O)n(Cc2ccccc2Cl)c1=O (stereo not drawn)	15	8
O=C1C(=Cc2ccccn2)SC(=S)N1c1cccnc1	8	11
Cc1ccccc1CN1CCC(CN(CC2CCCO2)C(=O)C2=NN(C)C(=O)CC2)CC1 (stereo not drawn)	8	-1
O=C([C@@H]1C[C@@H]2C=C[C@H]1C2)N1CCOc2c(O)cc(-c3cccc(Cl)c3)cc2C1	-2	-4
Cc1ccc(N2CCN(S(=O)(=O)N3CCC(C)CC3)CC2)c(C)c1	-3	-5
O=C(NCC1OCCc2ccccc21)c1cc(COc2c(F)cccc2F)on1 (stereo not drawn)	13	5
CCc1nc(N(CCC(=O)NCCN2CCOCC2)CCc2ccccc2)c2ccc(Cl)cc2n1	8	9
c1ccc2[nH]c(Sc3nc4ccccc4n4cnnc34)nc2c1	4	3
COc1ccc(S(=O)(=O)c2cc3cc(Br)ccc3oc2=O)cc1OC	8	8

A portion of the library. The share of hits here may be higher or lower than overall.
